Screening data deposited in PubChem BioAssay by National Center for Advancing Translational Sciences (NCATS).
D2 ag: human D2 receptor agonism in beta-arrestin assay; activation, % (no concentration beside the values); P14416; 360,000 compounds, 0.084% hits; DiscoveRx PathHunter D2 beta-arrestin, luminescence, 90 min; 100% = 57 uM dopamine signal; in the data active = activation above about 40%; inconclusive = about 15% to 40%; inactive = below about 15%; also: compound concentration not given in the record; the text of the record calls up to 30% inactive
Target sequence (P14416 whole entry, looked up): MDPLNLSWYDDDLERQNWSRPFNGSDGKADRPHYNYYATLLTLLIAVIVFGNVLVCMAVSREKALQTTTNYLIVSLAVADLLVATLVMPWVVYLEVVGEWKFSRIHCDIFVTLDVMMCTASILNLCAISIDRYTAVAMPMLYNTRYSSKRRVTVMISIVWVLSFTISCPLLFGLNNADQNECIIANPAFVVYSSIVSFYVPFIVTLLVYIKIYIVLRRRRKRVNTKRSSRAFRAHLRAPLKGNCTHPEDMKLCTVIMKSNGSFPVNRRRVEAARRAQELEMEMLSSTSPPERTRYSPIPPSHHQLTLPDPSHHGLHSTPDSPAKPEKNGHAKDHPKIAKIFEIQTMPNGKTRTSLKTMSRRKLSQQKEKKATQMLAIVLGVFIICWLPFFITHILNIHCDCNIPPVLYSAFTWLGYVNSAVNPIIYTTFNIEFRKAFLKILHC
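DiscoveRx PathHunter D2 beta-arrestin cells (2,100/well) attached overnight, then compound-stimulated 90 min at 37 C in HBSS/10 mM HEPES/0.1% Tween-20 buffer; beta-galactosidase complementation read by luminescence after 1 h at ambient temperature. Dopamine 57 uM final (EC100) as control.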
TRPML1 agonist: activates the human TRPML1 channel; TRPML1-expressing cells, Ca2+ dye fluorescence, FDSS; host cell line not named in the record; reference of the full effect not given here; 410,000 compounds, 0.12% hits; activation, % (test concentration not listed); in the data active = activation above about 50%; inconclusive = about 30% to 50%; inactive = below about 30%; also: 0% is about no effect; the text of the record puts the active cut at 80%
Target sequence (Q9GZU1 whole entry, looked up): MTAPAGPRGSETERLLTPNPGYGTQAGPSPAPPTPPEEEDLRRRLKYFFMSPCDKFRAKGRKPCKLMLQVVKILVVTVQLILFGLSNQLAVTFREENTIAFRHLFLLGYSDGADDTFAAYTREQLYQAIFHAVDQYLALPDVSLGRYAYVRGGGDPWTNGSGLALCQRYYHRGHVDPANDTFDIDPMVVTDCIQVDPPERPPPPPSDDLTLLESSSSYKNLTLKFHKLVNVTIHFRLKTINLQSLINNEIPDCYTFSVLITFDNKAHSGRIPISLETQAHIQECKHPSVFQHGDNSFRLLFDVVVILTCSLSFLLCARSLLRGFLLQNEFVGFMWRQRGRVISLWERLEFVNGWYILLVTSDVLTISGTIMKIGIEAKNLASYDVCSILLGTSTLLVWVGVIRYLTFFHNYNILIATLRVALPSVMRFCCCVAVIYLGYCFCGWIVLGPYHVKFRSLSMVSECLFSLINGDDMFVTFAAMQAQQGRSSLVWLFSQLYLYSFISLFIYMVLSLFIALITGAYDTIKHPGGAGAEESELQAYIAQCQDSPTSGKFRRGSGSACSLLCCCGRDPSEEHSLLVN
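Agonist activity was taken from a 110 s kinetic Ca2+ dye read on the FDSS after pinning compounds onto TRPML1-DL cells. The cells were seeded at 1,500/well with Tet inducer, incubated about 16 h, then dye-loaded at room temperature.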
Six1-Eya2 inh: blocks human Six1 binding to Eya2; 360,000 compounds, 0.56% hits; AlphaScreen GST-Six1/His-Eya2 binding, biochemical; active compounds read low; control for the full effect not named in the record; Q15475+O00167; AID 651725; activity change, % (concentration not given with the values); in the data active = activity change below about -65%; inconclusive = about -30% to -65%; inactive = above about -30%; also: % is scaled to controls: 0 for no effect and ±100 for the full control effect
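AlphaScreen luminescence read after one hour at 37 °C in darkness. Pin-transferred compounds met GST-Six1 and His-Eya2 protein (5X stock 250 nM/500 nM) plus glutathione donor and Ni-chelate acceptor beads (5X, 50 ug/mL).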
D2 potentiator: potentiates the human D2 dopamine receptor allosterically; DiscoveRx D2 beta-arrestin cells, luminescence, 90 min; 100% = 57 uM dopamine signal; potentiation, % (concentration not given with the values); 360,000 compounds, 0.23% hits; active = potentiation of 50% or more; inconclusive = 30% to 50%; inactive = 30% or less;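 also: tested on top of an EC20 dose of dopamine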
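PathHunter beta-arrestin assay in DiscoveRx D2 cells. Compounds were added with an EC20 of dopamine (50 nM final) for 90 min at 37 deg C. Luminescence was read 1 h after detection reagent, with 57 uM dopamine as the EC100 control.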
CtBP-E1A inh: blocks the CtBP interaction with E1A | activity change, % (no concentration beside the values) | AlphaScreen GST-E1A/His-CtBP binding, 1536-well; active compounds read low; control for the full effect not named in the record | AID 651724 | 340,000 compounds, 0.49% hits; in the data active means activity change below about -65%; inconclusive means about -30% to -65%; inactive means above about -30%; also: % is scaled to controls: 0 for no effect and ±100 for the full control effect
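In 5 uL wells, 23 nL compound meets equimolar GST-E1A and His-CtBP (5X stock 125 nM each) for 2 h, 37 °C. Beads (5X, 50 ug/mL) then 1 h, 37 °C, dark.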
PINK1 expr mod: PINK1 expression modulation. PINK1 immunofluorescence, high-content cytometry, 24 h. Potency, µM (titrated, usually from 76.6 µM), inactives show top-dose activation (PINK1 increase), actives largely listed as activators. 410,000 compounds, 0.2% hits. AID 624263; active = well fitted activation curve with a large enough effect; inconclusive = small, poorly fitted or top-dose-only effect; inactive = flat fitted curve, though single readings scatter; cell line not stated here;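 also: potency is read from the fitted curve at half-maximal effect; % of control where 0% means no effect; nearly all actives have a fitted effect of over 65% in size; a mitochondrial uncoupler was the plate control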
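Stable cell line, 250 cells/well, 12 h attachment; compounds pinned at 5 concentrations, 24 h; CCCP control. Fixed with nuclear dye, primary antibodies 12 h at 10 degrees C, secondary plus cell stain; laser-scanning cytometer read.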
Numbers without * were called inactive; u = inconclusive; x = no result given; & = joins results of further samples; [ ] = dose if it differs, or a comment. Rows were taken by chance, and some 1.3% of all compounds hit somewhere here.

Compound	D2 ag	TRPML1 agonist	Six1-Eya2 inh	D2 potentiator	CtBP-E1A inh	PINK1 expr mod
O=C1NC[C@@H](CCCCN2C[C@H](Cc3ccc(O)cc3)N(CCc3ccc(O)cc3)C(=O)C2=O)N(Cc2ccccc2)C1=O	x	-0.3	-3	x	-4	0.5%
Nc1nc(SCc2c(F)cccc2Cl)[nH]c(=O)c1-c1ccccc1	-2.3	3.3	-2	-10	1	1.2%[38.3 µM]
COc1ccc(CCN(Cc2cc3cc(C)ccc3[nH]c2=O)C(=O)N2CCCC2)cc1OC	-2.7	-0.9	-11	-21	-7	0.9%
Cc1c(NC(=O)CSc2nnnn2Cc2ccccc2)c(=O)n(-c2ccccc2)n1C	0.5	-0.2	2	-5	2	-0.4%[38.3 µM]
O=[N+]([O-])c1cc2c(cc1Br)-c1ccccc1C2	-4.4	-0.1	-21	-5	-4	-0.2%
COc1cccc(NC2=C(C#N)C(=O)NC(c3cccc(OC)c3O)S2)c1 (stereo not given)	-5.3	-0.1	-4	-22	x	1.2%
CCn1c(SCC(=O)NC2CCCC2)nc2c1c(=O)n(C)c(=O)n2C	-3.6	0.3	1	-2	3	0.8%
COC(=O)CNC(=O)c1ccc(=O)oc1	-3.4	-0.4	6	-17	9	-3.0%
O=C1CCC(=O)c2ccc3c4c(ccc1c24)CC3	-2.0	-1.1	-8	-4	-3	-0.6%
COc1ccc(Br)cc1CNC(=O)CCC(=O)N1CCSc2ccccc21	2.3	0.5&4.4	3	-5	0	1.3%&1.1%
Cc1ccc(-n2nc(C)c3onc(C)c3c2=O)cc1	-5.4	-0.8	6	-17	x	1.2%
CCOC(=O)Nc1cc(N)ncn1	-2.2	0.5	8	-5	6	-5.0%
Cc1cc(C)[n+](-c2ccc(F)cc2)c2[nH]c(=O)[nH]c(=O)c12	0.4	-0.9	10	-2	0	1.1%
O=C(Nc1cccc(NC(=O)c2cccs2)c1)c1ccc([N+](=O)[O-])o1	u	1.0	-8	5	-8	0.1%
CC(=O)Nc1ccc(S(=O)(=O)Nc2ncccn2)cc1	-0.1	0.0	3	-12	10	4.3%[38.3 µM]
O=C(c1ccco1)c1cc2c(ccc3ccccc32)oc1=O	0.4	-0.2	-5	-8	6	0.6%[38.3 µM]
Cc1ccc(S(=O)(=O)N[C@H](C(=O)N2CCC3(O)CCCCC3C2)c2ccccc2)cc1 (stereo not given in full)	2.1	0.3	8	7	9	0.9%
CC(C)NC(=O)C1CC(=O)N(c2ccc(F)c(Cl)c2)C1 (stereo not given)	-0.7	-0.5	-1	1	5	0.9%
CCN(CC(=O)NC1CCS(=O)(=O)C1)S(=O)(=O)c1ccc(C)cc1C (stereo not given)	1.0	1.8	2	1	6	-1.1%
COc1ccc(C(=O)n2nc(C)cc2C)cc1Br	-4.6	1.1	15	-7	16	8.5%[38.3 µM]
CCN(CC)Cc1c(O)c(Cl)cc2c(C)cc(=O)oc12	3.8	-0.1	1	-1	7	3.0%
Cc1ccc(S(=O)(=O)N(CCC#N)CCN2CCCC2)cc1	1.2	4.6	-1	-18	1	1.3%
COc1ccc(N(C(=O)c2ccco2)C(C(=O)NC2CCCC2)c2ccc(OC)c(OC)c2)cc1 (stereo not given)	-3.8	1.4	11	-8	1	0.3%
Cc1cc(=O)oc(C)c1C(=O)N[C@@H]1CCCCNC1=O	-4.2	-0.1	0	-10	2	1.4%
Cc1ccc(S(=O)(=O)CCSc2cccc(C(=O)O)c2)cc1	-1.8	1.0	6	-1	0	1.0%
CCOC(=O)N1CCC(NC(=O)C2CCN(S(=O)(=O)c3cnc[nH]3)CC2)CC1	0.7	0.5	4	-1	0	3.1%
COc1ccc(-n2nc(C(=O)NCC(=O)N3CCOCC3)c3ccccc3c2=O)cc1OC	4.2	0.3	6	-4	7	0.5%
CCCn1nc(Oc2nc(N(C)C)nc(N(C)C)n2)ccc1=O	-1.3	1.5	-11	-6	-1	-0.5%
CCOC(=O)C=Cc1ccc(C(=O)OCC)[nH]1	-3.7	-0.8	-10	0	2	12%
COc1ccc(C(C(=O)NC2CCCC2)N(C(=O)Cc2cccs2)C2CC2)cc1OC (stereo not given)	-2.8	1.5	7	-6	9	0.8%

A second format for two compounds above.
> CCn1c(SCC(=O)NC2CCCC2)nc2c1c(=O)n(C)c(=O)n2C
  D2 ag: -3.6
  TRPML1 agonist: 0.3
  Six1-Eya2 inh: 1
  D2 potentiator: -2
  CtBP-E1A inh: 3
  PINK1 expr mod: 0.8%
> O=C(Nc1cccc(NC(=O)c2cccs2)c1)c1ccc([N+](=O)[O-])o1
  D2 ag: u
  TRPML1 agonist: 1.0
  Six1-Eya2 inh: -8
  D2 potentiator: 5
  CtBP-E1A inh: -8
  PINK1 expr mod: 0.1%

The list goes on:
Compound	D2 ag	TRPML1 agonist	Six1-Eya2 inh	D2 potentiator	CtBP-E1A inh	PINK1 expr mod
COC(=O)c1ccc(N=NNc2ccccc2)cc1	4.2	2.1	-1	-1	-4	6.1%
C=CCOc1ccc2c(OC)c3ccoc3nc2c1OC	-3.1	-0.5	0	6	1	1.0%
O=C(CC1OC(=O)c2ccccc21)NC1CCCCC1 (stereo not given)	-3.4	-0.7	-3	25	0	-1.7%
COc1cccc(CC(O)CC2c3c(cc4c(c3OC)OCO4)CCN2C)c1 (stereo not given)	-3.7	0.1	-5	-56	x	3.5%
Cc1nn(-c2ccccc2)c(Cl)c1/C=N/Nc1ccc(S(=O)(=O)Nc2ccccc2C(=O)O)cc1[N+](=O)[O-]	0.3	-0.2	-19	-8	u	6.5%[38.3 µM]
O=C(Cn1nnc(N2CCCC2)n1)N/N=C/c1ccc(Cl)cc1	-3.7	0.8	-4	-2	5	2.6%
NC(=O)c1cc(N)ccc1N1CCCC1	3.2	-0.6	3	-21	3	0.2%
Cc1ccc(C(=O)CN2C(=O)C(C)Oc3ccccc32)cc1 (stereo not given)	-7.2	-0.7	1	-3	14	3.4%
Cc1c(C(=O)Nc2nc3ccccc3[nH]2)cccc1[N+](=O)[O-]	-0.8	-0.5	2	-17	11	1.8%
CCOC(=O)c1cnc2ccc(C)cn2c1=O	-4.3	-0.4	1	-12	x	-0.1%
O=C(COC(=O)c1cc2ccccc2o1)c1ccccc1	0.9	1.3	15	-11	3	2.3%
COc1cccc(-c2cc(C(=O)Nc3ccn(Cc4ccc(C)cc4)n3)no2)c1	-3.5	1.0	4	-8	1	1.2%&5.3%
COc1ccc(S(=O)(=O)NC(C)C)cc1C(=O)N1CCOCC1	-3.3	0.6	4	-6	-2	0.6%
CCn1nc(C)c(CN2CCC(n3nccc3NC(=O)CCCc3ccccc3)CC2)c1C	-2.3	0.3	8	-30	0	-1.9%
CCCCn1c(N)c(N(CC(C)C)C(=O)c2cccc(S(=O)(=O)N3CCN(C(C)=O)CC3)c2)c(=O)[nH]c1=O	-0.1	0.1	7	7	-1	2.5%
Cc1cccc(C(=O)NNC2=CC(=O)CC(C)(C)C2)c1O	-2.9	4.2	5	-5	-2	-1.4%
C=CCc1ccccc1OCC(O)Cn1ccnc1C (stereo not given)	1.3	-0.6	1	-8	2	-1.7%[38.3 µM]
CCOC(=O)c1cnc(SCc2ccc(C(C)(C)C)cc2)nc1N	-2.0	8.1	4	-9	11	17%[38.3 µM]
COc1ccc(Nc2ccc(Cl)cc2)c(C(=O)O)c1	-1.9	1.6	-13	-6	-3	1.4%
O=C(O)C(Cc1c[nH]c2ccccc12)N1C(=O)C2C3c4ccccc4C(c4ccccc43)[C@@H]2C1=O (stereo not given in full)	-2.6	-0.4	-1	-2	-1	-0.3%
CC(C)c1ccc(CC(=O)N2CCC2(C)C(=O)NS(=O)(=O)c2cccc(C#N)c2)cc1 (stereo not given)	-1.6	0.1	4	-2	-9	-0.8%
COc1ccc(OC)c(/C=C/c2c([N+](=O)[O-])c(=O)n(C)c(=O)n2C)c1	-1.2	-0.2	-6	-11	0	2.3%
O=C1C[C@@H]2c3c(cccc3CN1Cc1ccc(F)cc1)C[C@@H](O)[C@H]2O	-3.2	0.0&-0.4	1	-7	6	-0.3%
CN(c1ccccc1)c1nc(N2CCCC2)nc(-n2ccnc2)n1	-7.1	1.2	-7	-18	-4	3.5%
O=C(NCc1ccco1)Nc1ccc2snnc2c1	0.4	-0.9	-2	9	-9	4.7%
CS(=O)(=O)N(CC(=O)Nc1ccccc1Br)Cc1ccccc1	-3.4	0.3	-7	-7	-2	-0.5%
Nc1ccc(C(=O)O)cc1S(=O)(=O)O	0.0	-0.9	7	-1	6	1.0%
CCC(=O)OC1(C(=O)CCl)[C@@H](C)C[C@H]2[C@@H]3CCC4=CC(=O)C=C[C@]4(C)[C@@]3(F)[C@@H](O)C[C@@]21C (stereo not given in full)	-4.0	1.5	8	-5	-1	4.7%
Cc1ccnc(NC(=O)c2cccc3ccccc23)c1	-5.7	2.0	-5	-8	-7	4.3%
CN1OC[C@@H]2CN(C(=O)C(C)(C)C)[C@H](c3cccc(Oc4ccccc4)c3)C[C@@H]21	-2.2	-0.5	3	2	2	1.1%
Cc1ccc(-c2cc(-c3ccccc3)nc(Cl)n2)cc1	-0.6	-0.6	46	-5	37	14%[38.3 µM]
CC(C)(C)c1ccc(C(=O)Nc2ccc3c(c2)C(=O)NC3=O)cc1	8.0	0.1	1	1	7	1.3%
COc1ccc2[nH]c3c(=O)n(CCCCC(=O)NCCC(C)C)c(=S)[nH]c3c2c1	-0.2	-0.2	-2	-10	x	0.4%
Cc1nc(Nc2ccc(Cl)cc2Cl)sc1C(=O)Nc1ccccc1	-2.2	1.8	-1	-10	-1	u
Cc1onc(-c2c(F)cccc2Cl)c1C(=O)Nc1sc2c(c1C(N)=O)CCC2	-1.2	-0.2	-12	5	-19	-0.2%[38.3 µM]
O=C(CCC(=O)Nc1ccccc1)NCCO	-5.2	3.4	6	4	1	-1.2%
O=C(OCC(=O)c1ccco1)c1ccc2ncsc2c1	0.0	1.2	-2	-14	0	-1.8%
CCOc1ccc(Oc2ccc(NS(=O)(=O)c3cc(C(=O)O)ccc3Cl)cc2)cc1	0.4	-0.7	-3	-1	2	-0.9%
c1ccc2c(c1)nc1n2CCN1CCNC1CCCCC1	-3.9	0.7	-6	-24	7	3.9%
CS(=O)(=O)Nc1ccc(C2=NN(S(C)(=O)=O)C(c3ccccc3)C2)cc1 (stereo not given)	-4.3	0.3	-9	-5	18	1.3%
COC(=O)c1ccc2c(c1)C(=O)/C(=C/c1ccc(O)cc1)O2	1.1	7.0	7	-6	7	6.5%
CCN(CC(=O)NCc1ccc(Cl)cc1)C(=O)CN1C(=O)NC(C)(c2ccccc2)C1=O (stereo not given)	-2.1	0.4	-10	-1	-3	1.4%
CCCCC1CC2=C(C(=O)OC(C)(C)O2)C(c2ccc(F)cc2)O1 (stereo not given)	-5.8	0.1	14	-7	8	3.4%
